# Source: PubChem (National Center for Advancing Translational Sciences (NCATS))
# VDR inh = vitamin D3 receptor (human) inhibition; P11473; VDR-SRC2-3 peptide fluorescence polarization, 2 h; Potency, µM, without a hit: max response, negative = inhibition, most hits filed as inhibitors; 400,000 compounds, 0.93% hits; AID 504847; active = well fitted inhibition curve with a large enough effect; inconclusive = small, poorly fitted or top-dose-only effect, or another doubt; inactive = no such curve, though single readings can be large or run the other way; also: series mostly up to about 120 µM
# Target sequence (P11473 whole entry, looked up): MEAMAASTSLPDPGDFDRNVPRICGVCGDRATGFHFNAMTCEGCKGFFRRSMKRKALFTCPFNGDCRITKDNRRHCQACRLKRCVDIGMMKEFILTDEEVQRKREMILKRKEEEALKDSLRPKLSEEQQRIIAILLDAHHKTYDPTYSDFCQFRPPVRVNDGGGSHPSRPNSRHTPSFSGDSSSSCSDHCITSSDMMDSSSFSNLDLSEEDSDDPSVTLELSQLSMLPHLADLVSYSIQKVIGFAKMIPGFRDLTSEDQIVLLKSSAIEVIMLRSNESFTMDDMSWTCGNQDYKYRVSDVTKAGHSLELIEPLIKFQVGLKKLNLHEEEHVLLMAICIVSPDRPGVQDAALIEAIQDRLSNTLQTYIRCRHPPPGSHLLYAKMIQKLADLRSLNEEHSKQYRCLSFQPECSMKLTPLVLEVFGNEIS
#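 Two reagent solutions held at 4 deg C in the dark were dispensed, compounds pinned at 23 nl, and the mixture incubated 2 h at room temperature. Read-out: fluorescence polarization of VDR–SRC2-3 peptide binding.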
# * hit, by the source's call; ? = inconclusive; & = joins results of further samples. % is scaled to controls: 0 for no effect and ±100 for the full control effect; potency is read from the fitted curve at half-maximal effect. Not all compounds are listed. The share of hits here may be higher or lower than overall.
SMILES,VDR inh
CCCOC(=O)c1ccc(OCC(O)CN2CCN(C(=O)c3ccccc3)CC2)cc1 (centres undefined),-24%
CCN(Cc1ccncc1)Cc1cn[nH]c1-c1ccc(OC)cc1F,3%
O=C(CNC(=O)C1COc2ccccc2O1)N/N=C/c1ccc(O)cc1O (centres undefined),-5%
COc1ccc(NC(=O)Cn2c(=O)n(-c3ccc(C)c(C)c3)c(=O)c3c4c(sc32)CCCCC4)cc1Cl,2%
O=c1c2ccccc2sn1-c1ccc(S(=O)(=O)N2CCCCC2)cc1,-6%
CCN1CCCC1CNC(=O)c1cc(S(N)(=O)=O)ccc1OC (centres undefined),0%&-16%
O=C(NC1CCCc2ccccc21)C1CCC(CNc2c(N3CCOCC3)c(=O)c2=O)CC1 (centres undefined),-17%
CCOc1ccc(CNc2ncnc(N)n2)cc1,6%
Cc1ccc(-n2nc3c(=O)n(CCCC(=O)NCc4ccc(C)o4)nc(C)c3c2C)cc1,-1%
O=C(O)CSCc1nc2ccccc2s1,1%
CC(=O)C(C(c1ccccc1)N1CCOCC1)N1CCOCC1 (centres undefined),-1%
Cc1nnc(Sc2c(N)n(C)c(=O)n(C)c2=O)s1,4%
CCCOc1ccc(-c2cccc(NS(=O)(=O)c3cccs3)c2)nn1,9%
CC(C)(C)c1ccc(C(=O)NCC(=O)OCC(=O)c2ccc3c(c2)-c2ccccc2C3)cc1,4%
Cc1ccccc1CNC(=O)c1ccccc1C,-2%
CCOc1ccc(C(=O)NN2C(=S)NC(C)(C)C=C2C)cc1,-5%
COC(=O)c1c(C)[nH]c(C(=O)CN(C)CC(=O)Nc2cccc(F)c2)c1C,-17%
Cn1c(Cn2cnc3ccccc32)nnc1SCc1ccccc1,-9%
CC(C)CC(=O)Nc1cccc2c1C(=O)N(c1ccccc1)C2=O,-9%
O=C(c1cc2ccccc2oc1=O)N1CCN(c2ccc(N3CCOCC3)nn2)CC1,-9%
COc1ccc(CC(=O)N(C)CC(=O)Nc2c(C)cccc2C)cc1S(=O)(=O)N1CCOCC1,-14%
O=C(CCNC(=O)C1CCN(S(=O)(=O)c2ccc(F)cc2)CC1)NCc1ccccc1Cl,-10%
COc1ccc(Oc2ncc3ncc(=O)n(C[C@H]4CCCO4)c3n2)cc1,-17%
Cc1csc(NC(=O)CSc2nnc(Cc3cccn3C)n2CCc2ccccc2)n1,-27%
COc1ccc(C)cc1S(=O)(=O)N(C)CC(=O)Nc1ccccc1,-12%
Cc1ccc(C(C)C)c(OCC(=O)Nc2c(C(=O)c3ccccc3)oc3ccccc23)c1,-7%
CC(=O)CC(C)(C)Nc1nc2cc([N+](=O)[O-])ccc2o1,8%
COc1ccc([C@@H]2[C@H]3CN(C(C)=O)CC=C3C(C#N)=C(N)C2(C#N)C#N)c2ccccc12,-2%
CCN(CC(=O)Nc1cccc(C(C)=O)c1)S(=O)(=O)c1ccc(OC)cc1,4%
Cc1ccc(NC(=O)C2CCCN(c3ncccn3)C2)cc1F (centres undefined),-8%
O=C1CSC(c2ccccc2)N1Nc1nc(N2CCOCC2)nc(N2CCOCC2)n1 (centres undefined),13%
CC(=NNc1nc2ccccc2s1)c1ncccn1,?
O=C(O)CNC(=O)[C@@H](CS)Cc1ccccc1,0%
NC(=O)c1ccccc1NC(=O)/C=C/c1cccc(Cl)c1,21%
O=C(N[C@@H](Cc1c[nH]c2ccccc12)C(=O)O)c1ccccc1Cl,7%
O=C1NC(CCc2ccccc2)C(=O)N1CCOc1ccccc1 (centres undefined),-13%
COc1ccc(-n2c(C)c(C(C)=O)c3cc(OC(C)=O)ccc32)cc1,8%
COc1cccc(NS(=O)(=O)c2c(C)nc3sccn3c2=O)c1,-4%
COc1ccccc1C(=O)N1CCC(N2CCN(c3ccccc3)CC2)CC1,-7%
CC1(c2ccccc2Cl)NC(=O)N(CC(=O)NCCC2=CCCCC2)C1=O (centres undefined),-4%
COc1ccc(OC(C)=O)c(C2c3cc(OC)c(OC)cc3CCN2C(C)=O)c1 (centres undefined),4%
Cc1nc(-n2nc(C)c(CCC(C)C)c2C)sc1C(=O)Nc1cccc(Cl)c1,9%
COc1ccc(CCNC(=O)Cn2c(=O)c3cccn3c3ccccc32)cc1OC,8%
O=C(CSc1nnc(-c2ccc(O)cc2)n1-c1ccccc1)CC(=O)Nc1ccccc1,-9%
CN(C(=O)c1cccc(NC(=O)Cc2cccc(NC(=O)C3CCN(C(=O)C4CCCCC4)CC3)c2)c1)C1CCC1,-2%
O=C(C1CCCN(S(=O)(=O)Cc2ccccc2)C1)N1CCc2ccccc21 (centres undefined),-6%
CC(C)c1nnc(NC(=O)C2CCCN2C(=O)Nc2ccccc2)s1 (centres undefined),-8%
O=C(NCCN1CCCCC1)Nc1ccc(F)cc1,-7%
CCOC(=O)C1CCN(Cc2cn(C)nc2-c2ccc(Oc3ccccc3)cc2)CC1,10%
Cc1ccc(S(=O)(=O)NCC(=O)NCc2ccncc2)cc1,0%
CCOc1ccc(C(C)=O)cc1CSc1nnnn1-c1ccc(O)cc1,0%
O=c1[nH]c(=O)n([C@@H]2O[C@H](CO)[C@@H](O)[C@H]2O)cc1Br,-2%
O=C1COCCN1,-14%
CCOC(=O)[C@@H]1[C@H]2COc3cc(OC)ccc3[C@H]2N2C(=O)N(c3ccc(Cl)cc3)C(=O)[C@]12C,-3%
COC(=O)c1cc(N=Cc2c(O)c3ccccc3oc2=O)cc(C(=O)OC)c1,-8%
Nn1c(SCC(=O)NCC2CCCO2)nnc1-c1ccco1 (centres undefined),7%
Cc1ccc2nc(N3CCC(C(=O)NCc4ccc(F)cc4)CC3)[nH]c2c1,6%
COCCCNC(=O)c1ccc([N+](=O)[O-])c(Cl)c1,-1%
COc1ccc(-n2ncc3c2CC(C)(C)CC3NC(=O)CCn2cncn2)cc1 (centres undefined),-10%
O=Cc1cccc2ccc3cccc(C(=O)O)c3c12,-4%

# (listing goes on)
SMILES,VDR inh
C/C(=N\NC(N)=O)c1c(F)cccc1F,-15%
OCCN1CCN(CC(O)COCCOc2ccc(Br)cc2)CC1 (centres undefined),18µM*
O=C(O)c1ccc(B(O)O)cc1,-17%
Cc1cc(C)c(S(=O)(=O)c2cccc(C(F)(F)F)c2)c(=O)[nH]1,-6%
Cc1cc(NC(=O)COC(=O)CNS(=O)(=O)c2ccc(C)c(C)c2)no1,-4%
c1cc(SC2CCCCC2)cc(-c2nc3cnccn3c2NC2CCCCC2)c1,-24%
NC(=O)CSc1nnc(COc2cccc3ccccc23)o1,-9%
O=C(c1ccc(-n2cnnn2)cc1)N1CCOCC1,1%
Cc1nn(-c2ccccn2)c2c1C(=O)CC(C)(C)C2N=[N+]=[N-] (centres undefined),-3%
CCOC(=O)c1noc2ncn(Cc3ccc([N+](=O)[O-])cc3)c(=O)c12,-2%
CCOc1cc2[nH]c(=S)n(C3CCN(Cc4ccccc4)CC3)c(=O)c2cc1OCC,-2%
CCN(CC)S(=O)(=O)c1cc(NC(=O)CSc2n[nH]c(N)n2)ccc1C,-3%
O=C1CCCN1CN(C(=O)c1ccccc1)c1ccccc1,3%
CCCN1CCN(CCCNC(=O)CCNC(=O)Cn2ccc3ccccc3c2=O)CC1,19%
CCC(CC)C(=O)N1CC(=O)Nc2ccc(F)cc2C1c1ccc(F)cc1 (centres undefined),-1%
CCCCCCSC1=C(C#N)C(c2ccc(O)cc2)CC(=O)N1 (centres undefined),0%
N#CC(Sc1ccccn1)c1ccc(Cl)cc1 (centres undefined),?
CC(C)(C)c1ccccc1NC(=O)CN1C(=O)NC2(CCCC2)C1=O,-16%
Cc1ccc(-n2c3c(cc(C(=O)NCC(=O)c4ccccc4)c2=O)C(=O)CCC3)cc1,-3%
NNC(=O)c1ccc(-c2ccccc2F)cc1,-30%
O=C(OCC(=O)N1CCN(c2ccccc2)CC1)C1CCCN1S(=O)(=O)c1ccc(Cl)cc1 (centres undefined),-15%
Cc1ccc(NC(=O)c2noc3c2CCCCC3)cc1,1%
CCNc1ncc2nc(CCc3ccccc3)c(=O)n(Cc3cccc(OC)c3)c2n1,-15%
O=C(NC1CCCCC1)C(c1ccncc1)N(C(=O)Cc1cccs1)c1ccccc1 (centres undefined),-4%
O=C(C#Cc1ccccc1)Nc1cccc(F)c1,-14%
CC(=O)c1cccc(NC(=O)C2CCN(C(=O)c3cnn(-c4ccccc4)c3-n3cccc3)CC2)c1,5%
CC1CCN(CCc2nc3cc(NC(=O)NC4CCCCC4)ccc3n2C)CC1,-1%
O=C(CP(=O)(O)CC(=O)c1ccccc1)c1ccccc1,13%
COc1ccc(-n2c(N)cc(=O)nc2SCC(=O)NC2CCCCC2)cc1,6%
O=C(NC1CCCC1)C(c1ccncc1)N(C(=O)Cc1cccs1)c1ccc(F)cc1 (centres undefined),-6%
CCCN1CNC(=S)N(c2ccccc2OCC)C1,-8%
Cc1sc(NC(=O)CSc2nnnn2C)c(C#N)c1C,-14%
Cc1cc(C)nc(SCCS(=O)Cc2ccc(Cl)cc2)n1 (centres undefined),1%
COC(=O)Nc1ccc(Cl)c(Cl)c1,6%
O=C(NCCC1=CCCCC1)NC12CC3CC(CC(C3)C1)C2,-4%
O=C(CCN1CCOCC1)c1ccc(N2CCCCC2)cc1,?
O=C(CCC1CCCC1)N1CCc2c([nH]c3ccccc23)C1c1ccc(F)cc1 (centres undefined),?
Cc1ccc(C(C)C)c(OCC(=O)Nc2ccc(C(=O)OC3CCCCC3)cc2)c1,-12%
COc1ccc(NC(=O)CS(=O)(=O)Cc2ccccc2)c([N+](=O)[O-])c1,-1%
Cc1ccc(NC(=O)NNC(=O)COc2ccc3ccccc3c2)cc1,-18%
Cc1onc(-c2c(Cl)cccc2Cl)c1C(N)=O,9%
O=C(CCC1CCCC1)Nc1ccc(C(=O)NCc2cccnc2)cc1,9%
Cn1c(=O)oc2cc(S(=O)(=O)N3CCC(C(=O)Nc4ccc(OC(F)(F)F)cc4)CC3)ccc21,0%
O=C(O)c1ccc(N=C2c3ccccc3-c3ccccc32)cc1,-12%
O=c1[nH]cc(S(=O)(=O)N2CCCc3ccccc32)c(=O)[nH]1,-2%
CC(OC(=O)c1cc(=O)[nH]c2ccccc12)C(=O)NCc1ccccc1 (centres undefined),-22%
COC(=O)CSc1ncc(S(=O)(=O)c2ccccc2)c(=O)[nH]1,-3%
CC(C)Oc1ccc(CNC(=O)c2ccc(CS(=O)c3cccc(Cl)c3)o2)cc1 (centres undefined),6%
O=C(Nc1ccc2c(c1)CCC2)c1ccc(Cl)nc1,5%
Cn1c(=O)c2c(-c3ccccc3)n(Cc3cccnc3)cc2n(C)c1=O,-15%
Cn1c(Cc2cccs2)n[nH]c1=S,-25%
O=C(O)c1ccc(N2C(=O)Nc3ccccc3N2O)cc1,-14%
CS(=O)(=O)Nc1cccc(-c2cnc3ccccc3n2)c1,-2%
O=C(O)c1ccc2c3c1cccc3c(=O)n1c3ccccc3nc21,-6%&-5%
CCN(CC)CCN(Cc1cc2cccc(C)c2[nH]c1=O)C(=S)Nc1ccccc1,-15%
CCOc1ccc2nc(SC(CC)C(=O)Nc3cc(C)on3)sc2c1 (centres undefined),-1%
O=C(Nc1ccccc1C(=O)N1CCOCC1)c1ccco1,1%
COc1ccc(CN(CC2CCCO2)S(=O)(=O)c2ccc(C(=O)O)cc2)cc1OC (centres undefined),18%
COc1ccc(N(C(=O)c2cccnc2)S(=O)(=O)c2ccc3c4c(cccc24)C(=O)N3C)cc1,-9%
Cn1c(C(=O)NCCOc2ccccc2Cl)cc(=O)n(C)c1=O,1%

# Grouped by structure, the entries above with fluorine (14)
SMILES,VDR inh
CCN(Cc1ccncc1)Cc1cn[nH]c1-c1ccc(OC)cc1F,3%
COC(=O)c1c(C)[nH]c(C(=O)CN(C)CC(=O)Nc2cccc(F)c2)c1C,-17%
O=C(CCNC(=O)C1CCN(S(=O)(=O)c2ccc(F)cc2)CC1)NCc1ccccc1Cl,-10%
Cc1ccc(NC(=O)C2CCCN(c3ncccn3)C2)cc1F (centres undefined),-8%
O=C(NCCN1CCCCC1)Nc1ccc(F)cc1,-7%
Cc1ccc2nc(N3CCC(C(=O)NCc4ccc(F)cc4)CC3)[nH]c2c1,6%
C/C(=N\NC(N)=O)c1c(F)cccc1F,-15%
Cc1cc(C)c(S(=O)(=O)c2cccc(C(F)(F)F)c2)c(=O)[nH]1,-6%
CCC(CC)C(=O)N1CC(=O)Nc2ccc(F)cc2C1c1ccc(F)cc1 (centres undefined),-1%
NNC(=O)c1ccc(-c2ccccc2F)cc1,-30%
O=C(C#Cc1ccccc1)Nc1cccc(F)c1,-14%
O=C(NC1CCCC1)C(c1ccncc1)N(C(=O)Cc1cccs1)c1ccc(F)cc1 (centres undefined),-6%
O=C(CCC1CCCC1)N1CCc2c([nH]c3ccccc23)C1c1ccc(F)cc1 (centres undefined),?
Cn1c(=O)oc2cc(S(=O)(=O)N3CCC(C(=O)Nc4ccc(OC(F)(F)F)cc4)CC3)ccc21,0%

# Following part.
SMILES,VDR inh
CN1CCC(=NNC(=O)c2ccco2)CC1,12%
CCCOC(=O)c1cccc(Nc2nc(-c3cccnc3)nc3ccccc23)c1,-5%
COc1ccc(OC)c2sc(NC(=O)c3ccc(S(=O)(=O)N4CCCC4)cc3)nc12,-3%
Cc1cccc(NC(=O)COC(=O)C2C3CC4OC(=O)C2C4C3)c1C (centres undefined),10%
O=c1c2ccccc2[nH]c(=S)n1-c1cccc(S(=O)(=O)N2CCCC2)c1,-10%
CC(OC(=O)CSCC(=O)Nc1ccc(Cl)cc1)C(=O)N(C)Cc1ccccc1 (centres undefined),16%
Fc1ccc(-c2nnc(-c3ccc4ccccc4c3)o2)cc1,-10%
Cc1ccc2sc(=O)[nH]c2c1,-16%
C#CCOCCOCCOCCNc1nc(N2CCN(C(=O)[C@H](CCC(=O)O)n3cc([C@@H](N)CCCCN)nn3)CC2)nc(N2CCN(C(=O)[C@H](CCC(=O)O)n3cc([C@@H](N)CCCCN)nn3)CC2)n1,-17%
